# GIV-Gai inh: inhibitors of GIV peptide binding to Galpha-i3, primary screen, biochemical, fluorescence polarization, FITC-GIV GBA peptide, rat Galphai3; percent of control (FP), % (test concentration not listed); 90 min; hits give low values; scaled: aluminum fluoride 0%, vehicle 100%; 0.42% of 210,000 active;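 active = replicate mean at 85% of control or lower, very high polarization wells dropped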;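 also: wells of about 15 µL received 100 nL stock; the first replicate is given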
# Target sequence (P08753 whole entry, looked up): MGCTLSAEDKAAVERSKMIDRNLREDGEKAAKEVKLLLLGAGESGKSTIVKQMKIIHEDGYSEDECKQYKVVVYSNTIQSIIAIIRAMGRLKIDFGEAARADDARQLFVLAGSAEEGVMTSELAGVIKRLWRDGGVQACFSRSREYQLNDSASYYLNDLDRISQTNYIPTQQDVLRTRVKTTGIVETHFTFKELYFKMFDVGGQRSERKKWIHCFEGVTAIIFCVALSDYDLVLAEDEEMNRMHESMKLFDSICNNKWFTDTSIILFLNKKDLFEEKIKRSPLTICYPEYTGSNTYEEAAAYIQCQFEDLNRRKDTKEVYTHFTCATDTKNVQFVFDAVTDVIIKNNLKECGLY
# Active calls of the source: *; & = joins results of further samples.
molecule	GIV-Gai inh
COc1ccc(C2CC(c3cc(Cl)ccc3O)=NC3(CCN(C)CC3)N2)cc1OC (configuration not stated)	102
N#Cc1c(NC(=O)c2cc3n(n2)C(C(F)(F)F)CC(c2ccccc2)N3)sc2c1CCCC2 (configuration not stated)	104
CC(=O)Nc1c(C)nn(-c2ccccc2)c1N1CCC(C(=O)Nc2ccccc2Cl)CC1	101
CCOc1c(C(=O)OC)sc2ccc(NC(=O)NCCc3ccccc3)cc12	99
CCCCCCCCCCOC(=O)c1ccc(-c2ccc(-c3ccc(C(=O)OCCCCCCCCCC)cc3)cc2)cc1	111
CC(=O)Nc1ccc2nc(N3CCC(C(=O)Nc4ccc(F)cc4)CC3)cc(C)c2c1	107
CC(=O)N1CCC(C(=O)Nc2cc(-c3nnc(C)o3)sc2C)CC1	100
CCOc1cccc2c1OC(c1cc(OC)ccc1OC)N1N=C(c3cccc(OC)c3)CC21 (configuration not stated)	101
CC(C)NC(=O)CCn1c(=O)c2ccccc2n2c(=O)n(Cc3ccc(Cl)cc3)nc12	98
Cc1ccc(N2S(=O)(=O)c3ccccc3S2(=O)=O)c(C)c1	108
CCc1cc(-c2csc(S(=O)(=O)N3CCN(C4CCCCC4)CC3)c2)on1	108
CC(C)NS(=O)(=O)c1ccc2c(c1)C(C)(C)CN2CC(=O)N1CCCC1	107
COc1ccc(NS(=O)(=O)c2cc(-c3cc(C(F)(F)F)on3)sc2C)c(OC)c1	101
O=S(=O)(c1cc(-c2noc(C3CCC3)n2)cs1)N1CCN(c2ccc(F)cc2)CC1	100
COc1ccc(-c2cc3n(C)c(C)c(CCC(=O)NC4CCC(C)CC4)c(=O)n3n2)cc1 (configuration not stated)	105
CCOc1cccc2c1N(C(=O)Cc1ccc(F)cc1)C(C)(C)C(=S)C2=C1SC(C(=O)OC)=C(C(=O)OC)S1	104
Nc1c(C(=O)c2ccc(F)cc2)oc2ccc(Cl)cc12	114
CC(=O)Nc1c(C)nn(-c2ccc(Cl)cc2)c1N1CCC(C(=O)NCC2CCCO2)CC1 (configuration not stated)	113
O=C(Nc1ccc([N+](=O)[O-])cc1)/C(=C/c1cccc([N+](=O)[O-])c1)NC(=O)c1ccccc1Br	104
CC(C)Cn1nc2ccc(S(=O)(=O)N3CCC(C)CC3)cn2c1=O	99
O=C1CSC2(C(=O)Nc3ccccc32)N1c1cccc(C(F)(F)F)c1 (configuration not stated)	114
O=C(c1coc(-c2ccccc2)n1)N1CCN(Cc2noc(-c3ccccc3)n2)CC1	100
CCCC1=NN(C(=O)Cc2ccc(OC)c(OC)c2)C(O)(C(F)(F)F)C1 (configuration not stated)	113
O=C(O/N=C1\CCCc2c1sc1nc3n(c(=O)c21)CCCCC3)c1cccc(I)c1	102
Cc1ccsc1C(=O)N1CCCN(Cc2noc(-c3ccccc3)n2)CC1	104
CCOc1ccc(N2CC(O)(c3ccc(Cl)cc3)[N+]3=C2CCCC3)cc1 (configuration not stated)	119
Cc1ccc(CC(=O)NCC(=O)Nc2nc3ccccc3[nH]2)cc1	96
CC1(C)CC(=O)C2=C(C1)N=C1c3ccccc3C(=O)C1C2c1ccc(F)cc1 (configuration not stated)	110
CC(=O)N(C(C)=O)c1nc(-c2ccccc2)cn1/N=C/c1ccccc1	104
O=C(Oc1ccc(C2(c3ccc(OC(=O)c4ccc(Cl)cc4Cl)cc3)c3ccccc3-c3ccccc32)cc1)c1ccc(Cl)cc1Cl	111
CN(C)C(=O)CSc1nc2ccccc2n1C(=O)c1ccc(Cl)cc1	111
CCC(C)NS(=O)(=O)c1ccc2c(c1)c(=O)n(CCC(=O)N1CCCC1)c(=O)n2C (configuration not stated)	107
COC(CNC(=O)c1ccc2c(c1)nc(C)n2-c1ccc(OCc2ccccc2)cc1)OC	106
O=C1C2C3c4ccccc4C(CO)(c4ccccc43)C2C(=O)N1c1ccc(I)cc1 (configuration not stated)	100
O=C(CNS(=O)(=O)c1cc(-c2noc(C3CCC3)n2)cs1)Nc1ccc(F)c(F)c1	102
COc1cc(NS(=O)(=O)c2cccc3nsnc23)c(C(=O)O)cc1OC	102
Cc1nn(-c2ccc3nnc(C)n3n2)c2c1C(c1cccc(OC3CCCC3)c1)CC(=O)N2 (configuration not stated)	97
COc1cc(OC)c(NC(=O)CSc2nc3[nH]ncc3c(=O)n2-c2ccc(Cl)cc2Cl)cc1Cl	113
CCOC(=O)CSc1nc2sc(C(=O)OCC)c(C)c2c(=O)n1Cc1ccccc1OC	119&106
N#CC(C#N)=Cc1cc(-c2ccccc2)n(-c2ccc(Cl)cc2)c1-c1ccccc1	106
CN1CCCc2cc(C(=O)N3CCCC3)sc21	98
Cc1cc(C)c(C2=NON3N(C(=O)c4cccc(Br)c4)c4ccccc4N23)c(C)c1	112
COc1ccc(Br)cc1C(=O)Nc1cc(-c2nc3cc(C)cc(C)c3o2)ccc1C	99
CCCS(=O)(=O)c1c(S(=O)(=O)CCC)c2c(C)cccn2c1C(=O)c1ccc(Br)cc1	108
CCC(SCCSC(CC)C(=O)Nc1nnc(C)s1)C(=O)Nc1nnc(C)s1 (configuration not stated)	116

# New compounds follow:
canonical_smiles	GIV-Gai inh
CCc1nc(-c2csc(S(=O)(=O)Nc3cccc(Br)c3)c2)no1	95
O=C1C(=O)N(c2cccc(Cl)c2)C(c2ccc3c(c2)OCO3)/C1=C(\O)c1ccccc1 (configuration not stated)	104
COc1cccc(-c2nc3ccccc3c3nnc(SCc4cccnc4)n23)c1	105
CC(=O)Nc1ccc(Sc2nc3ccc(C)cc3n3nnnc23)cc1	99
COc1cccc(Oc2ccnc(-c3ccc(C(=O)NCc4ccc(Br)cc4)cc3)n2)c1	102
Cc1nn(C)cc1C(C)NC(=O)c1cc2c(s1)CN(C1CC1)C2 (configuration not stated)	99
COCCNC(=O)c1ccc2c(=O)n(Cc3ccco3)c(SCC(=O)NCCC3=CCCCC3)nc2c1	111
O=C(c1ccc2c(c1)[nH]c(=S)n1c3ccccc3nc21)N1CCN(c2ccccc2)CC1	113
COc1ccc(CNC(=O)CCC(=O)Nc2nc(-c3cc4ccccc4oc3=O)cs2)cc1	110
O=C(c1cn(-c2ccc(Cl)cc2)nn1)N1CCCCC1	102
CCc1ccccc1NS(=O)(=O)c1cc(-c2nc(C)cs2)sc1C	103
CC1(C)c2ccccc2N2CC(=O)NC21/C=C/c1cccc2ccccc12 (configuration not stated)	104
COc1ccc(NC(=O)c2sc3ncn(CC(=O)N4CCN(c5ccccn5)CC4)c(=O)c3c2C)c(OC)c1	112
Cc1csc(-c2cc(S(=O)(=O)Nc3cc(F)ccc3Cl)cn2CC(=O)N2CCCC2)n1	108
CCC(C)NC(=O)CSCc1noc(-c2ccc(C)cc2)n1 (configuration not stated)	106
CCOC(=O)c1nc(Nc2ccc(OC)cc2)c2c(C)c(C)n(-c3cccc(Cl)c3)c2n1	102
CCCCNC(=O)CSc1nc2ccc(N3C(=O)c4ccccc4C3=O)cc2s1	110
CCc1ccc(C2(O)CC(C(F)(F)F)=NN2C(=O)c2cccc(OC)c2)cc1 (configuration not stated)	105
CCCCN(CC)C(=O)C1CCCN(c2ncc(-c3ccc(F)cc3)cn2)C1 (configuration not stated)	104
Cc1ccc(S(=O)(=O)Nc2ccc3c(c2)c2c(n3S(=O)(=O)c3ccc(C)cc3)CC(C)(C)CC2=O)cc1	117
COc1cc(C2Nc3ccccc3NC3=C2C(=O)CC(c2ccccc2Cl)C3)cc(OC)c1OC (configuration not stated)	114
COCCNC(=O)C1CCCN(c2cc(=O)n(C)c(=O)n2C)C1 (configuration not stated)	111
COc1cc(/C=C2/N=C(c3ccc([N+](=O)[O-])cc3)OC2=O)cc(Br)c1OC(C)=O	127
COC(=O)c1ccc(-n2c(/C=C/c3cccc(OC)c3OC)nc3ccccc3c2=O)cc1	100
Cc1ccc(C23CC4CC(CC(C(=O)Nc5ccc(Br)cc5)(C4)C2)C3)cc1	113
COc1cc(NC(=O)c2cccc(-c3cc(Oc4ccccc4OC)ncn3)c2)cc(OC)c1	103
CCOCCCNC(=O)c1cccc(Nc2ncc(-c3cccc(C)c3)cn2)c1	102
CC1(C)CC(=O)C2=C(C1)c1c(ccc3ccccc13)NC2c1cc(Cl)cc(Cl)c1OCc1ccccc1 (configuration not stated)	106
CCCCNC(=O)CCc1nc(N2CC(C)CC(C)C2)c2c(C)noc2n1 (configuration not stated)	101
O=S(=O)(c1ccccc1F)N1CCn2cccc2C1c1ccccc1F (configuration not stated)	103
O=C(Nc1ccc(Cl)cc1Cl)c1cc(S(=O)(=O)N2CCN(Cc3ccc4c(c3)OCO4)CC2)ccc1F	109
CCOC(=O)C1(C)C=C(Nc2cccc([N+](=O)[O-])c2)C(=O)N1c1cccc([N+](=O)[O-])c1 (configuration not stated)	104
Cc1cccc(C(=O)N2c3ccccc3N3C(c4c(C)c(C)c(Cl)c(C)c4C)=NON23)c1	102
CCOc1ccccc1NC(=O)CN(C)S(=O)(=O)c1cc2c(cc1C)NC(=O)CO2	106
COc1cc(C2C(C(=O)Nc3cccc(F)c3)=C(C)NC3=C2C(=O)CC(c2ccccc2)C3)ccc1O (configuration not stated)	100
Cc1cc2nc3s/c(=C/c4ccc(-c5cc([N+](=O)[O-])ccc5Cl)o4)c(=O)n3c2cc1C	102
N#CC1=C(SCC(=O)Nc2nc3ccccc3s2)NC(=O)C(C#N)C12CCCCC2 (configuration not stated)	119
COc1ccc(C(=O)NC(c2ccccc2)c2ccccc2)c(OC)n1	108
Cc1ccc(C)c(-c2csc(-c3cc4cc(Br)ccc4oc3=O)n2)c1	123
CC1(C)CC(=O)C2=C(C1)Nc1ccccc1N(CC(=O)NC1CCCCC1)C2c1ccco1 (configuration not stated)	115
O=C(C1CCN(c2nn3c(=O)c4c(nc3s2)CCCC4)CC1)N1CCN(c2ncccn2)CC1	102
Cc1cc(C)cc(NS(=O)(=O)c2cc(-c3nc(C)cs3)sc2C)c1	161
CC(c1nnc(SCC(=O)N2CCc3cc(Br)ccc32)n1C)N1C(=O)COc2ccccc21 (configuration not stated)	96
COc1ccc(NC(=O)c2nnc(C3CCCN(S(=O)(=O)c4c(C)n[nH]c4C)C3)s2)cc1 (configuration not stated)	99
COc1ccc(C(=O)CN2C3=NCCCN3c3ccccc32)cc1OC	106

# Part of the list above in order of count of non-hydrogen atoms, highest first:
canonical_smiles	GIV-Gai inh
COc1ccc(NC(=O)c2sc3ncn(CC(=O)N4CCN(c5ccccn5)CC4)c(=O)c3c2C)c(OC)c1	112
CC1(C)CC(=O)C2=C(C1)c1c(ccc3ccccc13)NC2c1cc(Cl)cc(Cl)c1OCc1ccccc1 (configuration not stated)	106
O=C(C1CCN(c2nn3c(=O)c4c(nc3s2)CCCC4)CC1)N1CCN(c2ncccn2)CC1	102
COC(CNC(=O)c1ccc2c(c1)nc(C)n2-c1ccc(OCc2ccccc2)cc1)OC	106
CC(=O)Nc1c(C)nn(-c2ccccc2)c1N1CCC(C(=O)Nc2ccccc2Cl)CC1	101
O=C1C(=O)N(c2cccc(Cl)c2)C(c2ccc3c(c2)OCO3)/C1=C(\O)c1ccccc1 (configuration not stated)	104
Cc1cc(C)c(C2=NON3N(C(=O)c4cccc(Br)c4)c4ccccc4N23)c(C)c1	112
CCc1ccc(C2(O)CC(C(F)(F)F)=NN2C(=O)c2cccc(OC)c2)cc1 (configuration not stated)	105
Cc1ccc(C23CC4CC(CC(C(=O)Nc5ccc(Br)cc5)(C4)C2)C3)cc1	113
COc1ccc(C(=O)CN2C3=NCCCN3c3ccccc32)cc1OC	106
CN(C)C(=O)CSc1nc2ccccc2n1C(=O)c1ccc(Cl)cc1	111
Cc1cc(C)cc(NS(=O)(=O)c2cc(-c3nc(C)cs3)sc2C)c1	161
CCc1nc(-c2csc(S(=O)(=O)Nc3cccc(Br)c3)c2)no1	95
CCC(C)NC(=O)CSCc1noc(-c2ccc(C)cc2)n1 (configuration not stated)	106

# Later entries.
canonical_smiles	GIV-Gai inh
O=C(NCc1ccco1)c1ccc2c(=O)n(CC3CCCO3)c(=S)[nH]c2c1 (configuration not stated)	113
COc1ccc(-c2nc3c4c(-c5ccccc5)c(-c5ccccc5)oc4ncn3n2)cc1OC	111
CCN(CC)c1c(C)c(C)nc2ncnn12	108
CCOc1ccc(S(=O)(=O)N2CCC[C@@H]2C(=O)NCc2csc(C)n2)cc1	94
COc1ccc(N(C(=O)c2ccc(C)cc2)C2(C(=O)NCc3ccccc3)CCN(C(C)=O)CC2)cc1	100
Cc1ccc(OC(=O)c2cn(C)c(=O)c3ccccc23)cc1	100
O=C1NC(=O)/C(=C\c2cc(Br)c(Sc3ccc(Cl)cc3)o2)N1	102
Cc1ccc(-c2[nH]nc3c2C(c2cn[nH]c2-c2ccc(F)cc2)C(C#N)=C(N)O3)cc1 (configuration not stated)	110
O=C1CN(Cc2ccc(Br)cc2)S(=O)(=O)c2ccccc2N1Cc1ccc(F)cc1	109
COc1ccc2c(c1)c(=O)c1ccccc1n2CC(=O)Nc1c(F)cccc1F	105
COc1cc(C2C3=C(CC(C)(C)CC3=O)NC3=C2C(=O)CC(C)(C)C3)ccc1OCc1ccc(Cl)cc1	116
Cc1csc(-c2cc(S(=O)(=O)Nc3ccc(F)cc3Cl)cn2CC(=O)N2CCCC2)n1	103
Cc1nc(CNC(=O)[C@H]2CSCN2C(=O)Nc2ccccc2)cs1	99
CC(=O)Nc1ccc(C)cc1S(=O)(=O)Nc1ccc(-c2ccc3cc(C)ccc3n2)cc1	106
Cc1cccc(OCCn2c(NC(=O)c3ccco3)nc3ccccc32)c1	110
Nc1ccc2nc(SCC(=O)Nc3ccc4nc(SCC(=O)N5CCOCC5)sc4c3)sc2c1	112
O=C(NCc1ccc2c(c1)OCO2)c1ccc2c(=O)n(Cc3ccc4c(c3)OCO4)c(=S)[nH]c2c1	105
Cc1cc(-n2c(C)nc3ccccc3c2=O)ccc1NC(=O)CC(C)(C)C	102

# Screening results: PubChem, ICCB-Longwood Screening Facility, Harvard Medical School

# Not all compounds are listed; count on the stated rates, not on these rows.
